HPGD block: qHTS Assay for Inhibitors of HPGD (15-Hydroxyprostaglandin Dehydrogenase); actives 4.3% (n = 150,000); AID 894, 2007; Potency, µM, for the others: at the highest dose activity change, negative = inhibition, most hits filed as inhibitors; 15-hydroxyprostaglandin dehydrogenase [NAD(+)] (Homo sapiens), P15428; purified HPGD, NADH fluorescence kinetic, PGE2 substrate; active = well fitted inhibition curve with a large enough effect (not every such curve was filed as active); inconclusive = small, poorly fitted or top-dose-only effect, or another doubt; inactive = no such curve, though single readings can be large or run the other way;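 also: top concentration of the series not given in the record; plate controls included wells without enzyme; inactives centre near -10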
Target sequence (P15428 whole entry, looked up): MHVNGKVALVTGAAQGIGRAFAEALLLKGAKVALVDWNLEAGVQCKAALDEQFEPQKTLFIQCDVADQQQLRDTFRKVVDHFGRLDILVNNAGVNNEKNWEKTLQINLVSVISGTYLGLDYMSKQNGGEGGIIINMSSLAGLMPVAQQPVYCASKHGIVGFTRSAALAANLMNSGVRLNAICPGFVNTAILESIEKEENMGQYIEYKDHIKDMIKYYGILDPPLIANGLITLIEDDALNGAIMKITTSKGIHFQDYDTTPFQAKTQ
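NADH formation kinetics: reaction with 30 uM PGE2 and 1 mM NAD+ (final), 20 nM enzyme, Tris-HCl pH 8 with Tween 20, after 15 min compound preincubation at room temperature. Fluorescence change, last versus first of five reads.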
* marks the source's active call; other numbers are inactive results; ? = inconclusive; & = joins results of further samples. % is scaled to controls: 0 for no effect and ±100 for the full control effect; potency is read from the fitted curve at half-maximal effect. Only part of the results is shown (hit frequency here may not be typical).

SMILES	HPGD block
Nc1c(N(C(=O)Nc2ccc(Cl)c(Cl)c2)C2CCCC2)c(=O)[nH]c(=O)n1Cc1ccccc1	1%
COC(=O)C1=CNC=C(C(=O)OC)C1c1cccc(OC)c1	?
CCOc1ccc(S(=O)(=O)N2CCc3ccccc3C2)cc1	-17%
O=C(CSc1nnc(-c2ccccc2)n1Cc1ccco1)NCc1ccc2c(c1)OCO2	-26%
CCOc1ccc(C(=O)N/N=C(/C)C2C(=O)c3ccccc3C2=O)cc1	-26%
Cc1nc(NC2=NCN(C3CCCCC3C)CN2)nc2ccccc12 (centres undefined)	-3%
CN(C)S(=O)(=O)c1cccc(NC(=O)COC(=O)c2ccc([N+](=O)[O-])o2)c1	-12%
COc1ccc2c(c1)OC(=O)CC2c1ccccc1OC (centres undefined)	-6%
O=c1[nH]cnc2scc(-c3cccs3)c12	-8%
O=C1C2C(C(=O)N1/N=C/c1cccc([N+](=O)[O-])c1)C1C=CC2C12CC2 (centres undefined)	16µM*
Cc1ccc(C)c2c1[nH]c1ccc([N+](=O)[O-])cc12	-3%
N#Cc1c(-c2ccc3c(c2)OCO3)csc1N	-18%
CN(C)C(=O)Cn1nc(-c2ccccc2)c2ccccc2c1=O	-2%
O=C(COC(=O)c1cnccn1)NCCc1ccccc1	-3%
CC(C)Cn1c(CN2CCN(c3ccccc3F)CC2)nc2c1c(=O)[nH]c(=O)n2C	-4%
COc1cc(NC(=O)Cc2ccccc2)cc(OC)c1	-15%
CC(C)n1nc(C(=O)OCC(=O)c2c[nH]c3ccccc23)c2ccccc2c1=O	-17%
O=C(NCc1ccccc1)Nc1cccn(Cc2ccccc2F)c1=O	?
Cc1nc(N2CCN(C)CC2)c2c(C)c(C(=O)Nc3ccc(C)c(F)c3)sc2n1	-18%
CC(NC(=O)COc1ccccc1)C(=O)OCC(=O)c1cc2ccccc2o1 (centres undefined)	-18%
O=c1c(Cl)cc(Cl)nn1-c1ccccc1	-17%
CCOC(=O)N1c2ccccc2C=CC1OCC (centres undefined)	-14%
COc1ccc(S(=O)(=O)N2CCN(C)CC2)cc1Br	2%
CCCN(Cc1cc2ccc(C)cc2[nH]c1=O)C(=O)c1cccnc1	-15%
O=C(N/N=C/c1sc(=O)n(-c2ccccc2)c1Cl)c1ccncc1	-22%

(list continues)
SMILES	HPGD block
CC(=O)OCc1c(F)c(F)c(-n2nc(C)cc2C)c(F)c1F	2%
Cc1c(Cc2c(Cl)cccc2Cl)c(=O)ccn1C(C)c1ccccc1 (centres undefined)	1%
CCOC(=O)Oc1ccc(C(=O)OCCCN(C)C)cc1OC	-4%
CCOc1ccccc1NS(=O)(=O)c1cccc2nsnc12	-11%
O=C(Nc1ccccc1)N1CCC(C(=O)N2CCN(S(=O)(=O)c3cccc(F)c3)CC2)CC1	-4%
O=C1CCCC2=C1C(c1ccncc1)Nc1ccccc1N2 (centres undefined)	-11%
Cc1ccc(Cn2nnc3c(=O)n(Cc4cccc(C)c4)cnc32)cc1	5µM*
Cc1ccc(C)c(NC(NC(=O)c2cccnc2)C(Cl)(Cl)Cl)c1 (centres undefined)	-5%
O=C(Nc1ccnc(-c2cccnc2)n1)c1ccccc1Cl	-13%
CCOC(=O)c1cnc(-n2nc(C)cc2C)nc1Nc1cccc(C(=O)O)c1	-5%
O=C(c1ccccc1)N1CCC(c2nc3c(nnn3Cc3ccccc3Cl)c(=O)[nH]2)CC1	11µM*
COc1ccccc1-n1c(CNC(=O)c2ccco2)nnc1SCC(=O)Nc1cc(C)ccc1C	-7%
C[C@@H](C(=O)Nc1ccc2ccccc2c1)[C@@H]1C[C@@]1(C)[C@@H](NC(=O)c1ccccc1)c1ccccc1	-15%&-11%
S=C(c1cn(CCOc2cccc3ccccc23)c2ccccc12)N1CCCC1	-11%
O=[N+]([O-])c1ccc2nc(-c3ccccc3)[nH]c2c1	-4%
O=C(CCc1ccccc1)NCc1ccccn1	?
O=C1c2ccccc2C(=O)N1CCCP(=O)(O)CCc1ccccc1	-1%
COc1ccc(-c2nc(C#N)c(N3CCCCCC3)o2)cc1	?
Cc1cc(C)nc(N2CCC(C(=O)N3CCN(c4cc(Cl)ccc4C)CC3)CC2)n1	-16%
c1ccc(Oc2cnc3ccccc3n2)cc1	-5%
CCOc1ccc(N2C(=O)CC(n3ccc(C)n3)C2=O)cc1 (centres undefined)	-6%
COc1cc(C(=O)N2CCN(C/C=C/c3ccccc3)CC2)cc(OC)c1C	-4%
Cc1cccc(OCc2nnc(N)s2)c1	1%
COc1cc(C(=O)NCc2cccc3ccccc23)ccc1OCc1ccccc1	-23%
O=C(Cn1cc(C(F)(F)F)cc(Cl)c1=O)Nc1cccc(Cl)c1	?

Entries listed so far shown as hits in HPGD block:
SMILES	HPGD block
O=C1C2C(C(=O)N1/N=C/c1cccc([N+](=O)[O-])c1)C1C=CC2C12CC2 (centres undefined)	16µM*
Cc1ccc(Cn2nnc3c(=O)n(Cc4cccc(C)c4)cnc32)cc1	5µM*
O=C(c1ccccc1)N1CCC(c2nc3c(nnn3Cc3ccccc3Cl)c(=O)[nH]2)CC1	11µM*

(further entries)
SMILES	HPGD block
Cc1oc(-c2ccccc2Cl)cc1-c1nn2c(-c3ccco3)nnc2s1	-14%
Cc1nc(Sc2nnnn2C)c2c3c(sc2n1)CCC3	?
Cc1cc(=O)oc2cc(OC(C)C(=O)Nc3nccs3)ccc12 (centres undefined)	?
CC(Sc1ccccc1)C(=O)Nc1cccc(N(C)S(C)(=O)=O)c1 (centres undefined)	0%
CCOC(=O)c1cc(NC(=O)c2ccccc2)c(=O)oc1-c1ccccc1	-8%
CCOc1ccc(NC(=O)N(C2CCCCCC2)C2CCN(C(C)=O)CC2)cc1	-7%
O=C(CC1(O)C(=O)Nc2ccccc21)c1ccccc1O (centres undefined)	-8%
O=C(NC(C(=O)c1ccccc1)N1CCOCC1)c1ccccc1 (centres undefined)	4%
O=C(Nc1cc(Cl)ccc1O)c1snnc1-c1ccccc1	-20%
Cc1cccc(C2=NN(c3ccc(Br)cc3)[C@@H](C(=O)N3CCOC3=O)[C@@H]2c2ccc([N+](=O)[O-])cc2)c1	-15%
O=C(Nc1ccc2cn[nH]c2c1)c1ccc(Cl)c(S(=O)(=O)N2CCOCC2)c1	-16%
COc1ccc(C(c2c(C)[nH]n(-c3ccccc3)c2=O)c2c(C)[nH]n(-c3ccccc3)c2=O)cc1OC	?
C[C@H](N=C(NC#N)Nc1ccncc1)C(C)(C)C	-28%&-14%
COc1ccc(C(=O)n2nc(-c3ccc(Cl)cc3)nc2N)cc1OC	-17%
Cc1ccc(S(=O)(=O)N2CCC[C@H]2C(=O)OC(C)C(=O)Nc2ncc(Cl)cc2Cl)cc1 (some centres undefined)	-6%
C#CCOc1ccc(Br)cc1/C=N/O	14µM*
Cc1cccc(C2CC(c3ccc(Br)cc3)Nc3nc(N)nn32)c1 (centres undefined)	-8%
CCCn1nc(C(=O)N2CC(=O)Nc3ccccc32)c2ccccc2c1=O	-5%
COc1ccccc1NC(=O)CSc1ncn[nH]1	-15%
COc1ccc(CCNC(=O)c2ccc(CN3CCC(Cc4ccccc4)CC3)cc2)cc1OC	3%
CC(C)NS(=O)(=O)c1ccc(NC(=O)Cc2cccs2)cc1	-7%
NC(=O)Nc1n[nH]c(-c2ccccc2)n1	-3%
Cc1ccc(-c2ccc(/C=C3/NC(=O)NC3=O)o2)cc1[N+](=O)[O-]	-27%
Cc1ccc(Nc2c3c(nc4ncnn24)CCC3)cc1	-21%
COc1n[nH]c2nncnc12	-7%

Continued; the last two above are carried over.
SMILES	HPGD block
Cc1ccc(Nc2c3c(nc4ncnn24)CCC3)cc1	-21%
COc1n[nH]c2nncnc12	-7%
O=C(c1ccc(S(=O)(=O)c2ccccc2Cl)c([N+](=O)[O-])c1)N1CCN(Cc2ccccc2)CC1	-12%
Cc1cc(C)c(C#N)c(Sc2ccc(N)cc2)n1	-1%
COc1ccc(S(=O)(=O)Nc2nc(C(F)(F)F)cs2)cc1	-10%
COC(=O)CSc1nc2cc(C)cc(C)c2cc1C#N	-4%
CCCC(=O)c1c(C)c2ccccc2n1C	-15%
CN1CCN(C(=O)c2cc(-c3ccccc3)on2)CC1	-23%
c1ccc2c(-c3nnc4n3CCCCC4)cc(-c3ccncc3)nc2c1	-20%
CC(C)C(NS(=O)(=O)c1ccc2c(c1)oc(=O)n2C)C(=O)N1CCN(Cc2ccccc2)CC1 (centres undefined)	-5%
COC(=O)c1[nH]c2ccc(Br)cc2c1NC(=O)CN1CCN(C2CCCCC2)CC1	-10%
O=C(CSc1oc(-c2cccs2)nc1S(=O)(=O)c1ccccc1)NC1CCCCC1	?
CO/N=C(\C(=O)N[C@@H]1C(=O)N2C(C(=O)O)=C(COC(C)=O)CS[C@H]12)c1csc(N)n1	-14%
O=C(Nc1cccc(F)c1)/C(=C\c1cccnc1)NC(=O)c1cccs1	-1%
Clc1ccc(SCCCCn2ccnc2)cc1	-6%
COc1cccc(C(=O)NCCn2ccc3ccccc32)c1	-3%
COc1ccccc1N1CCN(C(CNS(=O)(=O)c2ccc(C)cc2)c2cccnc2)CC1 (centres undefined)	-1%
Oc1ccc(-c2n[nH]c(=S)n2Cc2ccccc2)cc1	?
COc1cc(C2C(C#N)=C(N)N(c3sc4c(c3C#N)CCCC4)C3=C2C(=O)CC(C)(C)C3)cc(OC)c1OC (centres undefined)	-8%
CCN(CC)C(=O)CC(c1ccc(F)cc1)c1ccc(OC(C)C)cc1 (centres undefined)	-14%
CCOC(=O)N1CCN(C(=O)c2c(O)c3cccc4c3n(c2=O)CC4)CC1	-6%
Cc1nc(N[C@@H](Cc2c[nH]c3ccccc23)C(=O)O)c2oc3ccccc3c2n1	?
CC1CC(C)CN(C(=O)C(NS(=O)(=O)c2ccc(Br)s2)c2ccccc2)C1 (centres undefined)	-10%
CC(=O)N1CCC2(CCCN(C(=O)Nc3cccc(F)c3)C2)CC1	-3%
C/C(=N\NC(=O)c1ccc(Cl)c(Cl)c1)c1ccc(Br)s1	-20%
Cn1c(=O)c2c(nc(CN3CCc4ccccc4C3)n2Cc2ccccc2)n(C)c1=O	-12%
Cc1cc2nc(C)n(CCCNC(=O)Nc3ccc(C#N)cc3)c2cc1C	-4%

Other results
SMILES	HPGD block
O=C(Nc1ccccc1)OC1CCC2CC1CCC2OC(=O)Nc1ccccc1 (centres undefined)	-13%
O=C(Nc1ccc(Cl)cc1)OCc1cc(-c2ccccc2Cl)on1	-4%
COc1ccc(S(=O)(=O)NCCSCc2cccc(C)c2)cc1Br	-1%
COc1cc(OC)c(C(=O)COc2ncnc3ccccc23)c(OC)c1	-2%
CCc1ccc2oc(=O)cc(CN(C)Cc3ccccc3)c2c1	-16%
O=C(NCCc1cn2ccccc2n1)C1CCCCC1	?
CCOC(=O)N1CCC(NC(=O)c2ccc(CS(=O)(=O)c3c(Cl)cccc3Cl)o2)CC1	-7%
Cc1cc(C)nc(SCCn2c(N3CCCCC3)nc3c2c(=O)n(C)c(=O)n3C)n1	-2%
Cc1cccc(CSCCNC(=O)c2ccc(N(C)S(=O)(=O)c3ccccc3)cc2)c1	-19%
CCOC(=O)C1CCN(C(=O)CCc2c(C)nc3c(-c4ccc(F)cc4)c(C)nn3c2C)CC1	-2%
Cc1ccc([N+](=O)[O-])cc1NC(=S)NC(=O)C(C)(C)C	7.1µM*
CCN(CC)C(=O)CSc1nc(O)cc(=O)n1C	-11%
CN1CCc2cc(O)c(O)cc2C(c2ccccc2)C1 (centres undefined)	8%
O=C(O)[C@H]1CN(C/C=C/P(=O)(O)O)CCN1	-5%
Nc1cc(-c2nc3ncccc3o2)ccc1Cl	?
O=C(CN1C(=O)NC2(CCCC2)C1=O)Nc1ccc(F)c(F)c1F	-9%
Cn1c(SCc2cc(=O)[nH]c3ccccc23)nnc1-c1ccc(Br)cc1	?
Cc1noc(C)c1C(=O)NCc1cccs1	-14%
COc1ccc(-c2csc(Cc3nnc4n3CCCCC4)n2)cc1	-24%
Cn1c(=O)oc2cc(S(=O)(=O)N3CCC4(CC3)OCCO4)ccc21	0%
COc1ccc(NC(=O)c2cccs2)c([N+](=O)[O-])c1	-5%
N#CC1(Nc2ccc(-c3ccc(NC4(C#N)CCCC4)cc3)cc2)CCCC1	-6%
CC(C)c1ccc(NC(=O)C2CCN(S(C)(=O)=O)CC2)cc1	-12%
Cc1cc(C)n(/N=C/c2ccco2)c(=O)c1C#N	-14%
CCOC(=O)N1CCC(NC(=O)C2CCN(S(=O)(=O)N3CCCC3)CC2)CC1	-13%

Remaining list, next part:
SMILES	HPGD block
COc1ccc(C(=O)N2CCN(C(C)=O)CC2)cc1S(=O)(=O)NCc1ccc(Cl)cc1	-4%
Cc1cc(OCCCCCNCCO)cc(C)c1Cl	-5%
O=c1[nH]c(SCCOc2ccccc2)nc2ccccc12	-11%
CCOc1ccc(NC(=O)CSc2nnc(Cc3cccn3C)n2-c2ccc(F)cc2)cc1	-5%
CC(C#CCN1CCCCC1)OCCOCc1ccccc1 (centres undefined)	-9%
CS(=O)(=O)N1CCN(c2ccccc2NC(=O)c2cccs2)CC1	-10%
Cc1ccc(Sc2cnn(-c3ccccc3)c(=O)c2Cl)cc1	-5%
CCn1c(=Nc2ccc(N3CCOCC3)cc2)ccc2ccccc21	-7%
COc1ccc(-c2cc(N3CCCC3)n3ncnc3n2)cc1	?
COc1cc(/C=N/NC(=O)c2cc(-c3ccc4c(c3)OCO4)n[nH]2)ccc1O	-26%
CCC(C)(C(=O)NC1CCCC1)N(C(=O)c1ccccn1)c1ccccc1 (centres undefined)	-1%

Among those listed so far, 4 contain a COOH group:
SMILES	HPGD block
CCOC(=O)c1cnc(-n2nc(C)cc2C)nc1Nc1cccc(C(=O)O)c1	-5%
CO/N=C(\C(=O)N[C@@H]1C(=O)N2C(C(=O)O)=C(COC(C)=O)CS[C@H]12)c1csc(N)n1	-14%
Cc1nc(N[C@@H](Cc2c[nH]c3ccccc23)C(=O)O)c2oc3ccccc3c2n1	?
O=C(O)[C@H]1CN(C/C=C/P(=O)(O)O)CCN1	-5%

Assay outcomes: PubChem, National Center for Advancing Translational Sciences (NCATS)
